Compound activity from PubChem.
AID504770: growth inhibitors of E. coli YBA685 in a screen for V. cholerae RctB (chromosome II replication) inhibitors | AID 504770 | z-score (no concentration beside the values) | hit rate 0.27% among 130,000 | E. coli YBA685 rctB-dependent plasmid, OD600 growth, 3 h; hits give low values;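 active means z-score under -2 on both plates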;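 further: wells of about 30 µL received 100 nL stock; score is relative to mean and SD of the test wells; the first replicate is given; strong numbers were not always called active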
CapD inh: blocks the Bacillus anthracis CapD enzyme; purified CapD enzyme, fluorescence intensity read-out; hits give low values; some hits fall short of the stated cut; z-score (concentration not given with the values); hit rate 0.23% among 140,000; AID 492967;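 active means z-score under -4 in either of two replicates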;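 further: stock transfer was 100 nL into about 40 µL; score is relative to mean and spread of the plate; one replicate is shown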
Starred values were filed as active, the others as inactive; x = not tested or not shown.

SMILES	AID504770	CapD inh
CCOC(=O)C1CCC(CNCc2ccc(OC)cc2)CC1 (configuration not stated)	0.25	1.18
C=CCNc1nnc(SCC(=O)NC(=O)c2ccccc2OC)s1	0.25	x
O=C(NNC(=O)c1ccc(F)cc1)OCC12CC3CC(CC(C3)C1)C2	x	-0.255
Oc1ccc(Br)cc1-c1nc2c3ccccc3c3ccccc3c2[nH]1	x	-0.575
C=C(C)c1cccc(C(C)(C)NC(=O)Nc2ccc3[nH]c(=O)[nH]c3c2)c1	0.3	x
CCc1ccc(NC(=O)COC(=O)CN2C(=O)COc3ccccc32)cc1	1.75	x
CCOC(=O)c1[nH]c(C)c(CN(C2CCCCC2)S(C)(=O)=O)c1C	-0.35	-0.225
c1ccn2cc(-c3ccc4c(c3)OCCO4)cc2c1	1.4	4.42
CC1CCc2c(oc3ccc(NS(=O)(=O)c4ccc(C(C)(C)C)cc4)cc23)C1 (configuration not stated)	x	-0.305
CCOC(=O)c1cnc(-c2ccccc2)nc1Nc1ccc(C)cc1	0.35	x
CSc1ccc(C2C(C(=O)Nc3cccc(C(F)(F)F)c3)=C(C)NC3=C2C(=O)CC(c2ccccc2)C3)cc1 (configuration not stated)	x	4.3
CCOc1ccc(C2=NN3C(C2)c2cc(Cl)ccc2OC3c2cccc(Cl)c2)cc1 (configuration not stated)	x	-0.4
CC(C)C12C=CC(C)(CC1)C1C(=O)N(c3ccccc3)C(=O)C12 (configuration not stated)	x	-0.66
CCOC(=O)CSc1ccc(C(=O)Nc2ccc(Cl)cc2)cn1	x	-0.04
COc1ccc(-n2nnc3c(SCC(=O)NCC4CCCO4)ncnc32)cc1 (configuration not stated)	0.45	x
CN1CCN(C(=O)Oc2ccccc2)CC1	0.4	-0.565
COC(=O)/C(=C(/O)CSc1nnc(COc2ccccc2Cl)n1C)c1nc2ccccc2[nH]1	0.1	x
Cc1ccc(C(=O)NC(C)(C)C)cc1	-0.7	0.115
CCOC(=O)c1sc(NC(=O)CSc2nnc(C)c(=O)[nH]2)nc1C	x	-0.32
O=C(CC(NCCC1=CCCCC1)C(=O)O)Nc1ccccc1Cl (configuration not stated)	-0.95	x
NC(=O)NCc1ccc(C(=O)O)cc1	-0.9	x
COc1cc(NC(=O)c2cc3n(n2)C(C(F)(F)F)CC(c2ccc(Cl)cc2)N3)cc(OC)c1OC (configuration not stated)	x	-0.345
COc1ccccc1CNC(=O)OCCCCCc1ccccc1	x	-0.26
Cc1ccc(-n2c(=O)cc(N3CCCCCC3)[nH]c2=O)cc1	-0.8	-0.2
CCCC(=O)Nc1cc(C(=O)O)ccc1S(=O)(=O)c1ccc(Cl)cc1	-0.35	0.345
Cc1nc(-c2ccccc2)nc(OC(=O)N(C)C)c1Oc1ccc(Cl)cc1Cl	0.25	9.51
Cc1cc(SCc2ccccn2)nc(=O)[nH]1	1.65	x
COC(=O)c1ccc(N2CCN(CC(=O)c3ccc(C)cc3)CC2)c([N+](=O)[O-])c1	x	-0.325
C=CCNC(=O)c1cc(-c2ccccn2)nc2ccccc12	0.5	1.46
Clc1ccc(CSCc2nc3ccccc3[nH]2)cc1	-1.2	1.96
CC(C)OP(C)(=O)CN1CCN(CP(C)(=O)OC(C)C)CC1 (configuration not stated)	-0.3	-0.06
CCc1sc(-c2nnc(CN3CCN(S(=O)(=O)c4ccc5c(c4)CCC5)CC3)o2)cc1C	0.75	x
Cc1c(C(=O)NCc2cccnc2)oc2ccc3c(c12)C(O)CC1(CCCCC1)O3 (configuration not stated)	-0.75	23.7
CC(=O)N1CCC(N(C(=O)COc2ccccc2C(=O)NCc2ccccn2)C2CC2)CC1	x	-0.5
Nc1c(C(=O)Nc2ccc(S(N)(=O)=O)cc2)sc2nc3c(cc12)CCCC3	x	10.1
CC1CCCN(CC(O)COCc2ccc(Cl)cc2)C1 (configuration not stated)	-0.1	0.115
Nc1ccc(S(=O)(=O)N2CC(=O)NC(=O)C2)cc1	-0.7	0.235
CNC(=O)C1OC2OC(C)(C)OC2C2OC(C)(C)OC12 (configuration not stated)	x	-0.315
CC(N)Cc1ccc2c(c1)OCO2 (configuration not stated)	x	2.02
COc1ccc(Cl)cc1N1C(=O)COCC1=O	-0.7	-0.425
CN1C(=O)/C(=C2/Sc3ccccc3N2CCCS(=O)(=O)O)SC1=S	x	0.385
O=c1/c(=C\c2ccccc2)sc2nc3ccccc3n12	-0.4	-0.055
O=C(c1ccc(CN2CCc3ccccc3C2)cc1)N1CCCCC1	-1.2	-0.42
O=C(NCCc1ccc(F)cc1)c1ccco1	-0.05	-0.07
N/C(=N\OC(=O)c1ccccc1)c1cccnc1	-1	x

6 structures from above, arranged by length of the SMILES, high to low.
SMILES	AID504770	CapD inh
Cc1c(C(=O)NCc2cccnc2)oc2ccc3c(c12)C(O)CC1(CCCCC1)O3 (configuration not stated)	-0.75	23.7
Nc1c(C(=O)Nc2ccc(S(N)(=O)=O)cc2)sc2nc3c(cc12)CCCC3	x	10.1
CNC(=O)C1OC2OC(C)(C)OC2C2OC(C)(C)OC12 (configuration not stated)	x	-0.315
O=c1/c(=C\c2ccccc2)sc2nc3ccccc3n12	-0.4	-0.055
N/C(=N\OC(=O)c1ccccc1)c1cccnc1	-1	x
COc1ccc(Cl)cc1N1C(=O)COCC1=O	-0.7	-0.425

(cont.)
SMILES	AID504770	CapD inh
CC(CC(=O)Nc1ccccc1)CC1=NS(=O)(=O)c2ccccc2N1 (configuration not stated)	0.55	-0.65
CCc1ccc(OC)c(S(=O)(=O)N2CCCCC2)c1	-0.65	0.46
O=C(Nc1cccc2ccccc12)c1cc2ccccc2oc1=O	-0.1	0.775
CCOc1ccc(S(=O)(=O)N2CCSC2c2ccc(OC)c(OC)c2)cc1 (configuration not stated)	x	-0.17
COc1ccccc1NC(=O)c1cc2cc(Br)ccc2oc1=N	1.85	x
CC1=CC(C)(C)Nc2ccc(OC(=O)CN3C(=O)C4CCCCC4C3=O)cc21 (configuration not stated)	x	6.36
CN(C)c1ccc(C2Oc3ccccc3C3=C2C(c2ccc(Cl)cc2)n2ncnc2N3)cc1 (configuration not stated)	x	-0.685
C/C(=N/NC(N)=O)c1ccc(Sc2ccc(Cl)cc2)c([N+](=O)[O-])c1	x	0.165
O=C(NCCN1CCCCC1)Nc1ccccc1	1.5	-0.18
Cc1cc(Cc2cccs2)c(=O)[nH]n1	-0.55	-0.065
COc1cc(C2NC(=O)NC(C)=C2C(=O)OCc2ccc3c(c2)OCO3)cc(Br)c1O (configuration not stated)	x	0.655
O=c1cc(O)c2c(=O)n3c4c(cccc4c2o1)CCC3	0.85	x
Cc1nn(C(C)(C)C)c(C(=O)Sc2cccc(C(F)(F)F)c2)c1Br	0.05	10.1
CCCc1cc(=O)oc2cc(OC)ccc12	0.1	67.7
CC12CCC(C(=O)N(c3ccc(Br)cc3)C1=O)C2(C)C (configuration not stated)	x	0.335
COc1cc(N/C=C(\C#N)c2ccc(OCCCF)cc2)cc(OC)c1	x	-1.73
Nc1nc(Nc2ccc(Cl)cc2)sc1C(=O)c1cccc(C(F)(F)F)c1	x	-0.605
CC(=O)NC(=O)c1cc2cc(Br)ccc2oc1=Nc1ccccc1C	x	0.18
CCCOc1ccccc1O	-0.6	x
CCOC(=O)c1cc(-c2ccccc2)n(CC(=O)N2CCN(C3CCCCC3)CC2)c1C	0.15	0.175
Cc1[nH]nc(N)c1C1(O)C(=O)Nc2c(Cl)cc(Cl)cc21 (configuration not stated)	0.55	0.77
COc1ccc(-c2cc(-c3ccccc3)nc(SCC(N)=NC#N)c2C#N)cc1	-0.1	46
N#CC(C#N)=Cc1ccc(Oc2ccccc2)nc1	-0.9	0.355
CC(C)(C)c1ccc(C(=O)Nc2cc(S(C)(=O)=O)ccc2F)cc1	x	-0.525
O=C(CN1C(=O)c2ccccc2C1=O)OCc1nc2ccccc2s1	-0.6	-0.045
COc1ccccc1NC(=O)CSc1nc2ccccc2o1	-0.3	0.02
CN(C)S(=O)(=O)c1ccc(SCC(=O)Nc2ccc3c(c2)CCC3)nc1	-0.1	x
CCNC(=O)c1ccccc1-c1nc(-c2ccc(OC)c(OC)c2)no1	1.9	x
Oc1c(Br)cc(Br)cc1CNc1ccc(F)cc1	x	-0.905
CCc1ccccc1Nc1nc(N)nc(CN2C(=O)NC3(CCCCCC3)C2=O)n1	0.05	x
O=C(c1cccn2c(=O)c3cc4ccccc4cc3nc12)N1CCN(Cc2ccc3c(c2)OCO3)CC1	0.65	0.89
O=C(Cn1ncc2c(=O)oc3ccccc3c21)NC1CC1	1.1	-0.2
O=C(CNC(=O)c1ccc(Br)o1)Nc1ccc(Br)c(C(F)(F)F)c1	-0.3	x
CCc1nnsc1C(=O)Nc1c(C(=O)Nc2ccccc2)oc2ccccc12	-0.45	x
CC1CCN(C(=O)Cn2cc(C=C3C(=O)N(C)C(=O)N(C)C3=O)c3ccccc32)CC1	0.8	-0.405
CN1CCC(N(C2CC2)S(=O)(=O)c2ccccc2)CC1	x	0.045
N#Cc1cc(-c2cccc(C(F)(F)F)c2)cn(Cc2cccc(Cl)c2)c1=O	x	51.9
Cc1ccc(-n2nnnc2-c2cnn(-c3ccccc3)c2C)cc1	-0.9	0.255
CCC(C)NS(=O)(=O)c1ccc(F)c(OC)c1 (configuration not stated)	1.5	-0.2
O=C(NCCc1c[nH]c2ccccc12)/C(=C/c1ccco1)NC(=O)c1cccs1	x	-0.285
CCOC(=O)c1cc2ccccc2nc1N	-1.6	x
CCNc1nc(NCC)n2c(=S)[nH]nc2n1	-0.35	-0.285
CCOC(=O)N1CCC(n2c(SCc3ccc(F)cc3Cl)nc3ccsc3c2=O)CC1	-0.25	0.345
CCn1c(C)cc(/C=C2\C(=O)NC(=O)N(c3ccc(OC)cc3)C2=O)c1C	-0.35	-0.045
CC(=O)N1C(=S)NC(=O)/C1=C/c1cc2ccc(C)cc2nc1N1CCCCC1	x	-0.305

Rewritten bar-delimited: 6 of the compounds above
mol | AID504770 | CapD inh
C=C(C)c1cccc(C(C)(C)NC(=O)Nc2ccc3[nH]c(=O)[nH]c3c2)c1 | 0.3 | x
COC(=O)c1ccc(N2CCN(CC(=O)c3ccc(C)cc3)CC2)c([N+](=O)[O-])c1 | x | -0.325
CN1CCC(N(C2CC2)S(=O)(=O)c2ccccc2)CC1 | x | 0.045
CCc1ccc(OC)c(S(=O)(=O)N2CCCCC2)c1 | -0.65 | 0.46
CSc1ccc(C2C(C(=O)Nc3cccc(C(F)(F)F)c3)=C(C)NC3=C2C(=O)CC(c2ccccc2)C3)cc1 (configuration not stated) | x | 4.3
O=C(NCCN1CCCCC1)Nc1ccccc1 | 1.5 | -0.18

(further entries)
SMILES	AID504770	CapD inh
Cc1cc(NC(=O)C(C)Oc2ccccc2)no1 (configuration not stated)	0.15	-0.34
CS(=O)(=NS(=O)(=O)c1cc(S(=O)(=O)c2ccccc2)cs1)c1ccccc1 (configuration not stated)	0.35	0.39
Cc1ccc(OCC(O)CNc2ccc(Br)c(C(F)(F)F)c2)cc1C (configuration not stated)	0	-0.33
Cc1ccc(C(C)C)c(OCCn2c(CCNC(=O)c3ccco3)nc3ccccc32)c1	-0.15	-0.395
COc1cccc(NC(=O)C2c3ccccc3C(=O)N3CCc4ccccc4C23)c1 (configuration not stated)	-0.05	0.015
Cc1nn(C)c(Oc2cccc(Cl)c2)c1C(=O)Nc1ccc(F)cc1F	x	-0.36
CCOC(=O)c1c(CNC(C)C)oc2ccc(OC)cc12	1.15	2.3
CC(CO)NC(=O)OCC1c2ccccc2-c2ccccc21 (configuration not stated)	1.55	-1.24
COC(=O)c1sccc1N/N=C(\C#N)S(C)(=O)=O	x	0.08
CN1C(=O)NC(c2ccc(O)cc2)C2=C1CN(CCO)C2=O (configuration not stated)	-1	0.145
COc1cc(OC)nc(OC(Cc2ccncc2)c2ccc(C(F)(F)F)cc2)n1 (configuration not stated)	x	-0.29
CCOC(=O)c1ccc2nc(NC(=O)c3ccco3)sc2c1	-0.25	6.22
NNC(=O)c1ccccc1OCc1ccc(Cl)cc1	0	x
CCC(C)[C@H]1O[C@]2(C=C[C@@H]1C)C[C@@H]1C[C@@H](C/C=C(\C)[C@@H](OC3C[C@H](OC)C(O[C@H]4C[C@H](OC)[C@@H](O)[C@H](C)O4)[C@H](C)O3)[C@@H](C)/C=C/C=C3\CO[C@@H]4[C@H](O)C(C)=C[C@@H](C(=O)O1)[C@]34O)O2 (some centres not stated)	1.65	1.45
CN(C)N=Nc1ccc(Oc2ccccc2)cc1	1.05	x
NNC(=O)Cc1nc(-c2cnccn2)no1	x	-0.31
COC1=C/C(=C/c2c(N)n3c(SC(C)C)nsc3nc2=O)C=CC1=O	1.25	0.08
COc1ccccc1N1CC(C)(C)C(=O)N=C1Sc1ccc(C(F)(F)F)cc1[N+](=O)[O-]	x	0.01
CC1CC(C)CN(CC(O)Cn2c3ccccc3c3ccccc32)C1 (configuration not stated)	1.05	1
COc1ccc(C(=O)Nc2nnc(C3=COCCO3)o2)cc1	-0.15	x
Cc1ccc(OC(C)C(=O)N2CC(=O)Nc3ccccc32)c(C)c1 (configuration not stated)	-0.8	x
CCOc1cccc(NC(=O)C2CC(=O)N(Cc3ccc4c(c3)OCO4)C(=Nc3ccc(OC)cc3)S2)c1 (configuration not stated)	x	-0.035
CSc1nc2ccc(NC(=O)c3ccccc3C(F)(F)F)cc2s1	x	-0.455
Cc1cc(C)n(C(=O)CCN2C(=O)c3ccccc3C2=O)n1	x	-0.155
OC(c1ccccc1)(c1ccccc1)c1ccc2nc(-c3ccccc3)c(-c3ccccc3)nc2c1	x	0.91
CC(=O)Nc1nc(-c2ccc(Br)cc2)nc2c1c(=O)oc1ccccc12	x	-0.27
O=c1[nH]c2ccccc2nc1/C=C(\O)c1cccc2ccccc12	0.15	1.65

No enrichment for hits (roughly 0.39% active in at least one column).
